PV pol inh: inhibitors of poliovirus RNA polymerase binding and polymerization. P03300. poliovirus polymerase elongation, fluorescence polarization; active compounds read low. % elongation, % (compound at 16.7 µg/mL). hit rate 0.66% among 150,000; in the data active means % elongation below about 90%; further: some results filed as inactive read as strong as hits
Target sequence (P03300 1749-2209 limits assumed): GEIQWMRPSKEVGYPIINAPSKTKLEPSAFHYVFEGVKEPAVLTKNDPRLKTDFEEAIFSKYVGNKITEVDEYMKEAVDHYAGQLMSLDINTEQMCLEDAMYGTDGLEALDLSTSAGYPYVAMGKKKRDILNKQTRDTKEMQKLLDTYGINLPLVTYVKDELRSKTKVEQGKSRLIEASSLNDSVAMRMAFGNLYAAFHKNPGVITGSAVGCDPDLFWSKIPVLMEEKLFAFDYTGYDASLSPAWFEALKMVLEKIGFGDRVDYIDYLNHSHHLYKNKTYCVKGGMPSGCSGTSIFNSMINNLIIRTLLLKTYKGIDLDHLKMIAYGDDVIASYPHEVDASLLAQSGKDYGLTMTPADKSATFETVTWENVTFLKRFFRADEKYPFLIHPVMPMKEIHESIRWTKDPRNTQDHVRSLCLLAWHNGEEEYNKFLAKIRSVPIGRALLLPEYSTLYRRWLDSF
PV pol inh intensity: second read-out of PV pol inh, no call of its own (marks repeat the call); % elongation; measured here: total intensity read-out; formula for this scale not given here;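 total fluorescence in place of polarization; lower means less elongation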
Active calls of the source: *. An excerpt, so the mix of outcomes need not match the whole.

SMILES	PV pol inh	PV pol inh intensity
CCCOc1ccc(C2c3c(oc4ccc(F)cc4c3=O)C(=O)N2CCc2ccc(OC)cc2)cc1 (stereo not given)	107.0	110.0
COc1ccc(C2C(C(=O)Nc3ccc(C)cc3C)=C(C)Nc3nc4ccccc4n32)c(OC)c1 (stereo not given)	110.0	113.0
CC1CCC(C(=O)NC(C(=O)OCC(=O)c2ccccc2)C(C)C)CC1 (stereo not given)	113.0	110.0
O=C(NCCc1ccccc1)c1ccc(CSc2nc3ccncc3n2Cc2ccccc2F)cc1	109.0	112.0
CCSc1oc(-c2ccco2)nc1S(=O)(=O)c1ccc(Br)cc1	101.0	102.0
CCOc1ccc(CNC(=O)Cn2ccc3cc(S(=O)(=O)N4CCCCC4)ccc32)cc1	110.0	113.0
Cc1ccc2c(c1)-c1nc(-c3ccccc3)cc(-c3ccccc3)c1CO2	108.0	110.0
Cc1nnc(SCc2ccccc2)c2cc3sccc3n12	102.0	102.0
CCOC(=O)C1CCCN(C(=O)c2ccc3c(c2)sc2nc(-c4ccc(CC)cc4)cn23)C1 (stereo not given)	103.0	102.0
COc1ccc(Cl)cc1NC(=O)CCn1c(=O)c2cccn2c2ccccc21	112.0	109.0
COc1cccc(CNC(=O)CCCCCn2c(=O)[nH]c3cc(OC)c(OC)cc3c2=O)c1	101.0	99.0
CCOC(=O)c1ccccc1NC(=O)C(=O)Nc1ccc2nc3n(c(=O)c2c1)CCCCC3	109.0	107.0
O=C(Cn1c(=O)c2cccn2c2ccccc21)Nc1cc(F)ccc1F	111.0	109.0
CCc1cccc(CC)c1NC(=O)Cn1c(=O)c(-c2cc(C)ccc2NC(C)=O)nc2ccccc21	104.0	114.0
CCOc1ccc2nc(N(Cc3cccnc3)C(=O)C3CCCCC3)sc2c1	110.0	109.0
N#Cc1ccccc1Cn1c(SCC(=O)Nc2ccc(F)cc2)nc2ccccc21	111.0	116.0
CCC(=O)N1CCc2cc(CNS(=O)(=O)c3cccs3)ccc21	104.0	106.0
CCOc1ccc(NC(=O)CC2C(=O)N(c3ccccc3)C(=O)N2CCc2ccc(OC)cc2)cc1 (stereo not given)	108.0	107.0
Cc1ccc(S(=O)(=O)c2nc(S(=O)(=O)c3ccc(C)cc3)c(NC(C)C)s2)cc1	113.0	115.0
CCOCCCNC(=O)C(c1ccc(Cl)cc1)N(Cc1ccc2c(c1)OCO2)C(=O)c1ccccc1O (stereo not given)	104.0	106.0
COc1cccc(-c2noc(COc3cccc(C)c3C)n2)c1	120.0	123.0
CCC(=O)N1c2ccccc2CC1C(=O)NCc1ccc(N(C)C)cc1 (stereo not given)	100.0	105.0
CCOc1ccc(NC(=O)Cn2nc(Cc3cccnc3)c3ccccc3c2=O)cc1	106.0	113.0
COc1cccc(CNC(=O)c2cc3c(s2)-c2ccccc2OC3)c1	105.0	105.0
Cc1ccc(NC(=O)CSc2nc3c(sc4ccccc43)c(=O)n2CCCC(=O)NC2CCCC2)cc1C	105.0	111.0
CCCc1cc(C(=O)Nc2c(C)nn(Cc3ccc(C)cc3)c2C)no1	109.0	113.0
Cc1nc2nc(C)c(NS(=O)(=O)c3ccc(CC(C)C)cc3)c(=O)n2[nH]1	106.0	107.0
Fc1ccc(-c2nc(Nc3ccc(F)c(Cl)c3)nc3c2COc2ccccc2-3)cc1	111.0	113.0
O=C(CSc1nc2c(c(=O)[nH]1)CCC2)Nc1ccccc1F	106.0	106.0
CCSc1nnc2c(n1)OC(c1ccc(C)cc1)N(C(C)=O)c1ccccc1-2 (stereo not given)	109.0	109.0
Cc1cccc(OCC(=O)Nc2ccc(Cl)c(-c3nc4ncccc4o3)c2)c1C	101.0	101.0
CCOc1c(Br)cc(C2CC(=O)Nc3cc4c(cc32)OCO4)cc1OC (stereo not given)	98.0	97.0
CCOc1ccccc1C(=O)Nc1ccc(S(=O)(=O)Nc2nc(C)cc(C)n2)cc1	100.0	105.0
CCOC(=O)c1ccccc1NC(=O)N1CCCN(S(=O)(=O)c2ccc3c(ccn3CC)c2)CC1	108.0	112.0
Cc1cc(C)cc(NC(=O)C(CC(C)C)NC(=O)C2CCCCC2)c1 (stereo not given)	109.0	108.0
COc1cc(NC(=O)C(CC(C)C)NS(=O)(=O)c2ccc3c(c2)oc(=O)n3C)c(C(=O)O)cc1OC (stereo not given)	102.0	103.0
Cc1cc(OCC(=O)Nc2c(C(=O)c3ccccc3)oc3ccccc23)cc(C)c1Cl	109.0	113.0
O=S(=O)(NCc1ccc(Cl)cc1)c1ccc(N2CCCCS2(=O)=O)cc1	109.0	95.0
COc1ccccc1CNC(=O)CCC1N=C2c3ccccc3N=C(SCc3ccc(C)cc3)N2C1=O (stereo not given)	106.0	92.0
CC(=O)N1CCCc2cc(S(=O)(=O)N3CCCC(C(=O)N4CCN(c5ccccc5F)CC4)C3)ccc21 (stereo not given)	103.0	109.0
COC(=O)c1sc2cccc(F)c2c1S(=O)(=O)Nc1cc(C)c(Cl)cc1OC	110.0	114.0
COc1ccccc1-n1c(=O)c2c3c(sc2n(C)c1=O)CN(C(C)=O)CC3	94.0	95.0
CCOc1ccc(CCNC(=O)c2cc3sccc3n2CC)cc1OCC	107.0	110.0
CC1CCc2noc(NC(=O)c3ccc([N+](=O)[O-])cc3)c2C1 (stereo not given)	113.0	106.0
CN(C)S(=O)(=O)c1ccc2c(c1)N(CC(=O)N1CCN(c3cccc(Cl)c3)CC1)CCS2	111.0	119.0
CCOC(=O)c1nc(Nc2cccc(C)c2)c2ccccc2n1	109.0	110.0
Cc1cccc(-n2c(/C=C/c3cccc4ccccc34)nc3ccccc3c2=O)c1	111.0	113.0
COCCCNC(=O)c1ccc(CSc2nc3cccnc3n2Cc2ccc(OC)cc2)cc1	112.0	98.0
CCOc1cccc2sc(N(CCN(CC)CC)C(=O)c3ccco3)nc12	94.0	96.0
CCOC(=O)c1c(C)oc2nc(C)nc(NCCCN3CCN(c4cc(C)ccc4C)CC3)c12	113.0	109.0
O=C(Nc1c(-c2ccccc2)nc2ccccn12)c1ccccc1F	97.0	101.0
CCc1ccccc1NC(=O)CSc1nc2n[nH]c(C)c2c(=N)n1-c1cccc(C)c1	102.0	104.0
CCCCC(=O)Nc1ccc(C(=O)OCc2cc(=O)n3nc(C4CC4)sc3n2)cc1	103.0	99.0
CCN(CC)c1ccc2cc(-c3nc(-c4cc(OC)c(OC)c(OC)c4)no3)c(=O)oc2c1	104.0	305.0
Cc1cc(C)cc(Nc2nc3cc(Cl)c(Cl)cc3nc2-n2nc(C)cc2C)c1	104.0	103.0
O=C(CSc1nc2c([nH]c3ccccc32)c(=O)n1-c1ccc(Cl)cc1)N1CCCC1	110.0	107.0
O=C(NC1CCCC1)c1ccc2c(=O)n(Cc3ccccc3)c(SCc3cccc([N+](=O)[O-])c3)nc2c1	112.0	101.0
Cc1ccc(C(=O)Nc2ccc(F)cc2)cc1S(=O)(=O)N1CCCCCC1	106.0	107.0
CCS(=O)(=O)N1CCc2cc(C(=O)NCCc3ccc(OC)cc3)ccc21	99.0	87.0
Cc1ccc(-c2nc3sc(CCNC(=O)c4ccc(C)c(C)c4)c(C)n3n2)cc1	105.0	108.0
The results go on.
SMILES	PV pol inh	PV pol inh intensity
COc1ccccc1NC(=O)C1=C(C)Nc2ncnn2C1c1ccccc1C(=O)O (stereo not given)	104.0	111.0
Cc1ccc(S(=O)(=O)c2nc(-c3cccs3)oc2SC(C)c2ccccc2)cc1 (stereo not given)	109.0	114.0
CCCNC(=O)c1ccc(-n2c(-c3ccccc3)cc3c2CCC(C)C3)cc1 (stereo not given)	104.0	99.0
CCOC(=O)c1cnc2c(ccc3ccccc32)c1Nc1ccccc1OCC	108.0	105.0
CCc1nn(CC(=O)NC(C)c2ccccc2)c(=O)c2cc3sccc3n12 (stereo not given)	106.0	108.0
Cc1ccc(S(=O)(=O)C(CNS(=O)(=O)c2cc(F)ccc2F)c2cccs2)cc1 (stereo not given)	106.0	112.0
Cc1nnc(NCc2ccc(F)cc2)c2c1nnn2Cc1ccccc1Cl	109.0	106.0
COC(=O)c1ccccc1NC(=O)CSc1nc2sc3c(c2c(=O)[nH]1)CCCC3	97.0	100.0
Cc1ccc(-n2c(/C=C/c3c(C)n(C)c4ccccc34)nc3ccccc3c2=O)cc1	107.0	111.0
Cc1nnc(N2CCN(c3cccc(Cl)c3)CC2)c2c1nnn2Cc1ccc(F)cc1	110.0	112.0
Cc1ccc(OCC(=O)OC2=C(C(=O)c3ccccc3)N(C)S(=O)(=O)c3ccccc32)cc1	111.0	114.0
Cc1ccc(C)c(Nc2cc(C(=O)NC3CCCC3)c3ccccc3n2)c1	102.0	105.0
COc1ccc(C(=O)CN2C(=O)N(c3cc(C)cc(C)c3)S(=O)(=O)c3ccccc32)cc1	99.0	103.0
Cn1c(SCC(=O)N2CCCc3ccccc32)ncc(C(=O)Nc2ccccc2)c1=O	111.0	95.0
COc1ccc(-c2nsc(NC(=O)c3ccccc3Br)n2)cc1	103.0	105.0

Structures from the list above that contain a furan ring, fused or not:
SMILES	PV pol inh	PV pol inh intensity
CCSc1oc(-c2ccco2)nc1S(=O)(=O)c1ccc(Br)cc1	101.0	102.0
Cc1cc(OCC(=O)Nc2c(C(=O)c3ccccc3)oc3ccccc23)cc(C)c1Cl	109.0	113.0
CCOc1cccc2sc(N(CCN(CC)CC)C(=O)c3ccco3)nc12	94.0	96.0
CCOC(=O)c1c(C)oc2nc(C)nc(NCCCN3CCN(c4cc(C)ccc4C)CC3)c12	113.0	109.0

New compounds follow.
SMILES	PV pol inh	PV pol inh intensity
COCC(=O)Oc1c(Sc2ccc(C)cc2)c(C)nn1C(C)(C)C	106.0	107.0
COc1ccc(NC(=O)CSc2nc(-c3ccco3)cc(C(F)(F)F)n2)cc1	101.0	104.0
COc1ccc(NC(=O)C(Cc2ccccc2)NS(=O)(=O)c2ccc3c(c2)CCC(=O)N3)c(OC)c1 (stereo not given)	104.0	110.0
Cc1oc2ccc(O)c(CN3CCCCCC3)c2c1C(=O)Nc1cccc(C(F)(F)F)c1	102.0	104.0
CCn1c(C)c(C)c2cc(C(=O)NCc3ccc(F)cc3)ccc21	112.0	115.0
Cc1ccc(C)c(NS(=O)(=O)c2ccc3c4c(cccc24)C(=O)N3)c1	103.0	107.0
O=C(COc1ccccc1)OCc1cc(=O)n2nc(-c3cccs3)sc2n1	97.0	104.0
O=C(Nc1ccccc1C(F)(F)F)C1CCN(S(=O)(=O)c2ccccc2)CC1	104.0	106.0
CCc1ccc(Oc2c(C(F)(F)F)oc3c(CN4CCN(CC)CC4)c(O)ccc3c2=O)cc1	100.0	106.0
COc1ccc(CNC(=O)C(C)n2nc(C)c3c(C)n(-c4ccccc4)nc3c2=O)c(OC)c1 (stereo not given)	111.0	100.0
CCOc1ccc(-n2ccnc2SCC(=O)Nc2ccc(OC)cc2OC)cc1	103.0	104.0
Cc1cc(=O)[nH]c2nnc(SCc3c(F)cccc3Cl)n12	99.0	104.0
COc1ccc(NC(=O)CN(c2ccc(C)cc2)S(=O)(=O)c2cccc3nonc23)cc1OC	111.0	112.0
COc1ccc(Br)c(C(=O)Nc2cc3c(cc2N2CCOCC2)n(C)c(=O)n3C)c1	104.0	110.0
Cc1cc(C)cc(N(CC(=O)Nc2ccc(C)cc2Cl)S(=O)(=O)c2c(C)[nH]c(=O)[nH]c2=O)c1	107.0	111.0

Grouped by structure: the entries above containing a nitro group on carbon.
SMILES	PV pol inh	PV pol inh intensity
CC1CCc2noc(NC(=O)c3ccc([N+](=O)[O-])cc3)c2C1 (stereo not given)	113.0	106.0
O=C(NC1CCCC1)c1ccc2c(=O)n(Cc3ccccc3)c(SCc3cccc([N+](=O)[O-])c3)nc2c1	112.0	101.0

The list goes on:
SMILES	PV pol inh	PV pol inh intensity
Cc1c(CNC2CCCCC2)c(C(=O)O)c(C)n1Cc1ccc(Cl)cc1	104.0	104.0
CC(=O)N1c2ccc(S(=O)(=O)Nc3ccc(C)c(Cl)c3)cc2CC1C (stereo not given)	102.0	96.0
COc1cc2ccccc2cc1C(=O)Nc1ccc2oc(-c3cccc(Cl)c3Cl)nc2c1	103.0	105.0
COc1ccc(OC)c(CNC(=O)c2c(C)oc3ncn(CC(C)C)c(=O)c23)c1	106.0	110.0
Cc1ccccc1NC(=O)Cn1nc(-c2ccccc2)nc(Cc2ccccc2)c1=O	108.0	114.0
CCN(CC)CCNC(=O)c1ccc2c(=O)n3nc(Nc4cccc(Cl)c4C)sc3nc2c1	102.0	77.0
COc1ccc(N2C(=O)CCSC23C(=O)N(Cc2ccc(F)cc2)c2ccccc23)cc1 (stereo not given)	105.0	110.0
Cc1ccsc1CN(C(=O)COc1cccc(C)c1C)C1CCS(=O)(=O)C1 (stereo not given)	114.0	110.0
Cc1oc(-c2ccc(C(=O)Nc3ccc(F)cc3F)cc2)nc1COc1ccccc1	108.0	110.0
Cc1ccc(-n2ncc3c(NCc4ccccc4)ncnc32)cc1Cl	107.0	112.0
Cc1c(CC(=O)NCCc2ccc(Cl)cc2)c(=O)oc2c(C)c3occ(C(C)(C)C)c3cc12	114.0	113.0
Cn1c(C(=O)N2CCC(C(=O)NCCc3ccccc3)CC2)cc2sccc21	107.0	111.0
COc1ccc(Br)cc1C(=O)Nc1ccc2oc(-c3cccnc3)nc2c1	103.0	102.0
CCS(=O)(=O)N1CC(=O)N(c2ccc(C)c(C)c2)C(C)(C(=O)NC2CCCCC2)C1 (stereo not given)	107.0	111.0
CC(C)N(Cc1ccccc1)C(=O)Cn1ncc2c([nH]c3ccccc32)c1=O	110.0	114.0
CCc1cccc(NC(=O)C2CCCN(S(=O)(=O)c3cccs3)C2)c1 (stereo not given)	105.0	108.0
O=C(Nc1ccc(Br)cc1F)N1CCC(CN2CCc3ccccc3C2)CC1	112.0	117.0
Cc1cccc(CSc2nc(=O)c3c(n2C)NC(=O)CC3c2cc(F)cc(F)c2)c1 (stereo not given)	101.0	103.0
Cc1ccc2oc(-c3ccc(Cl)c(NC(=O)Cc4ccccc4)c3)nc2c1	101.0	102.0
Cc1cccc(/C=C/c2onc(C)c2S(=O)(=O)N2CCC(C(=O)N3CCC(C)CC3)CC2)c1	100.0	94.0

Screening data as filed in PubChem BioAssay.
